High-throughput results deposited in PubChem by Johns Hopkins Ion Channel Center.
KCNQ2 pot – KCNQ2 (rat) channel potentiation | O88943 | CHO-K1 KCNQ2, FluxOR thallium flux fluorescence; hits give high values | B-score at 10 µM | 310,000 compounds, 0.54% hits;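 active = fluorescence ratio B-score at least 3 SD of library B-scores, with initial fluorescence B-score within 3 SD, cut at about 5.3 in these data; same plate scores as AID 2156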;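 note: B-score of peak minus minimum over baseline fluorescence ratio after K+ and Tl+ stimulus; positive B-score means potentiation of KCNQ2 with more thallium influx and brighter signal; only the inactives scoring about 0 or higher are listed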
Target sequence (O88943 whole entry, looked up): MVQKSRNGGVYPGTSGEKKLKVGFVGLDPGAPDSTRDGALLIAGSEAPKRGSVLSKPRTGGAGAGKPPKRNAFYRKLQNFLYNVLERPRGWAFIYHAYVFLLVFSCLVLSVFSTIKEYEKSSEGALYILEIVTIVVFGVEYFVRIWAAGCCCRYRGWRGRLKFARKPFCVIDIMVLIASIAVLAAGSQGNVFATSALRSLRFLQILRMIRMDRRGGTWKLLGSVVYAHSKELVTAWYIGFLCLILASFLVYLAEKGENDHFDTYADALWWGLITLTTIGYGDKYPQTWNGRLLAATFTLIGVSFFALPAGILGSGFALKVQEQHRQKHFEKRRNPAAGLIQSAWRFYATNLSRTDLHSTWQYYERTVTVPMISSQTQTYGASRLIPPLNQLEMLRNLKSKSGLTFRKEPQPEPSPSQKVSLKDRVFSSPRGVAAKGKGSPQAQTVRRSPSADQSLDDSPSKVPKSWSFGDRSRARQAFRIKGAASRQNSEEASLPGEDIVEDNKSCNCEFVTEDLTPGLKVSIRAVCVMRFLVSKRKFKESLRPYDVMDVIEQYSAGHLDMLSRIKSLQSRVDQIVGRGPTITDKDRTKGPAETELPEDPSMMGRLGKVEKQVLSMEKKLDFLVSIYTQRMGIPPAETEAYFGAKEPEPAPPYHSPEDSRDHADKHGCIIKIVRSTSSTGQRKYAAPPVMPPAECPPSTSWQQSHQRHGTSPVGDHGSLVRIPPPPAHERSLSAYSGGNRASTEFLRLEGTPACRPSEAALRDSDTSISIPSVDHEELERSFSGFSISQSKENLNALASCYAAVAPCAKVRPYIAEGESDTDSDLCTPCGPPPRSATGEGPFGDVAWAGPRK
KCNQ2 pot baseline – further read-out of KCNQ2 pot, marked with its call; B-score; compound at 10 µM; measured here: initial fluorescence intensity artifact check;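 brightness before thallium and not channel activity; 0 = typical well and far values either way flag optical interference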
An asterisk follows results filed as active. Some of the compounds tested; rates above refer to the full screens.

Values run as follows: KCNQ2 pot	KCNQ2 pot baseline
O=C(COc1ccc(Cl)cc1Br)N1CCN(S(=O)(=O)c2ccccc2)CC1
    2.25	-1.41
CCOc1ccc(/C=C/C2=Cc3c(sc(NC(=O)CSc4n[nH]c(N)n4)c3C#N)C(C)(C)C2)cc1
    1.28	2.15
CC(C)C(NC=C1C(=O)OC(C)(C)OC1=O)C(=O)O (stereo not given)
    0.82	-0.85
Cc1cc(C(=O)N2CCN(c3ccccc3)CC2)c(C)o1
    0.12	-0.39
CCOC(=O)c1c(C)[nH]c(C(=O)COc2ccc3c(c2)OCO3)c1C
    1.09	-2.67
CCCOc1ccc(N2C(=O)CC(NCc3ccc(S(N)(=O)=O)cc3)C2=O)cc1 (stereo not given)
    0.27	-1.17
Cc1ccc(CNc2ccc(N3CCOCC3)cc2)s1
    1.83	-0.33
CCCNC(C)C(=O)Nc1ccccc1C (stereo not given)
    0.39	1.74
C#CCNC(=O)C1CCN(c2ccc(S(=O)(=O)N3CCOCC3)cc2Cl)CC1
    0.37	-0.47
COCCN(C(=O)CNC(=O)c1ccco1)C(C(=O)NC1CCCC1)c1ccccc1 (stereo not given)
    0.06	1.79
C=C1c2cc(C)c(C)cc2NC(=O)N1c1ccccc1
    0.68	-0.97
Cn1c(=O)n(CCCO)c(=O)c2c1nc1n2CCCN1Cc1ccccc1
    0.44	0.66
O=C(CN(c1ccc(Cl)cc1)S(=O)(=O)c1ccccc1)N/N=C/c1ccco1
    0.14	0.07
CCOC(=O)C1=C(COC(=O)COc2ccc(C(=O)CC)cc2)NC(=O)NC1C (stereo not given)
    3.39	-2.98
O=C(COC(=O)COc1ccc(Cl)cc1)Nc1ccc(F)c([N+](=O)[O-])c1
    0.42	0.85
C1=C(c2ccco2)N2CCN=C2S1
    0.6	-0.54
COC(=O)C1=C(O)CSC1=Nc1ccc(C)cc1
    0.99	1.1
CCc1ccc(CN2CCSCC2)cc1
    0.02	-0.42
CC(Sc1nc2cc([N+](=O)[O-])ccc2n1-c1cccc(C(F)(F)F)c1)C(=O)NC(N)=O (stereo not given)
    0.07	-1.75
CCOc1ccc(-n2ccnc2SCC(=O)Nc2nnc(C)s2)cc1
    2.05	-0.02

Values run as follows: KCNQ2 pot	KCNQ2 pot baseline
NS(=O)(=O)c1ccc(NC(=O)N[C@@H](Cc2ccccc2)C(=O)O)cc1
    0.91	1.44
CCOC(=O)N1CCN(S(=O)(=O)c2cn(C)c(=O)n(C)c2=O)CC1
    0.37	0.04
OCC1CCCN(C(=S)Nc2ccc(OC(F)F)cc2)C1 (stereo not given)
    0.06	-0.25
COC(=O)c1ccc(C23CC4(C2)[C@H](CN(Cc2ccc(C(F)(F)F)cc2)[C@@H]4c2ccccc2)C3c2ccccc2)cc1 (stereo not given in full)
    1.27	0.84
COc1ccc2[nH]c(=O)c(CN(CC3CCCO3)C(=O)Nc3ccc(F)cc3)cc2c1 (stereo not given)
    1.89	3.2
COc1ccc(S(=O)(=O)N(C)CC(=O)Nc2ccc3c(c2)OCO3)cc1
    0.87	0.07
Cc1nnc(SCC(=O)NC(=O)NCCC(C)C)s1
    0.37	-0.32
CC(C)Oc1ccc(/C=N/NC(=O)C2CCCN2S(=O)(=O)c2ccc(Cl)cc2)cc1 (stereo not given)
    0.37	1.48
Brc1ccc(-c2cn3ccccc3n2)cc1
    0.39	0.32
O=C1Nc2cc(C(F)(F)F)ccc2N2CCCCC12 (stereo not given)
    0.04	0.58
CCN(CC)C(=O)CSc1nnc(C2CCCCC2)o1
    0.42	0.75
O=c1[nH]c2ccccc2nc1Cc1ccccc1
    0.77	-0.39
CC(=O)c1ccc(NC(=O)C(C)n2c3ccccc3c3nc(=O)cc(C)n32)cc1 (stereo not given)
    0.01	0.28
Cc1ccc(NC(=O)Nc2cnccn2)cc1
    0.4	-0.04
Cc1ccc(NC(=S)Nc2ccc(Cl)c(Cl)c2)c(OC(F)F)c1
    0.36	-0.67
Cc1ccc(/C=C/C(=O)OCC(=O)Nc2ccccc2Sc2ccccc2)cc1
    0.92	0.26
O=C(NCc1cccnc1)c1cccc2c1C(=O)N(Cc1cccnc1)C2
    0.03	0.43
CC1=Nc2nc(N3CCCCC3)c(C#N)c3c4c(nc(c23)N1)N(c1ccc(C(C)C)cc1)C(=O)C4
    0.03	1.31
Cc1c(NC(=O)/C(C#N)=C/c2cccs2)c(=O)n(-c2ccccc2)n1C
    1.67	0.02
Cc1ccc(S(=O)(=O)CCC(=O)OCC(=O)NC2CCS(=O)(=O)C2)cc1 (stereo not given)
    1.8	1.99

Values run as follows: KCNQ2 pot	KCNQ2 pot baseline
Cc1c(Cl)cccc1NC(=O)c1cc(-c2ccccc2O)n[nH]1
    0.29	-0.11
CC1(C(=O)N(CC(=O)NC2CCCC2)Cc2ccc(Cl)cc2)CC(=O)N=C2C=CC=CN21 (stereo not given)
    0.79	0.97
CCOc1ccc(C2CC(c3ccc(F)cc3)n3ncnc3N2)cc1 (stereo not given)
    0.64	0.68
COc1ccc(OC)c(NC(=O)c2cccc(NC(=O)c3ccccc3C(=O)O)c2)c1
    0.69	0.36
NNC(=O)CN1C(c2ccc(Br)cc2)=Nc2ccc(Br)cc2C1c1ccccc1 (stereo not given)
    2.45	0
CS(=O)(=O)N(Cc1ccccc1)c1ccccc1C(=O)N1CCN(c2ccccc2)CC1
    0.39	-0.27
NC(=NCCc1ccccc1)NS(=O)(=O)c1ccccc1F
    1	0.15
CCCCc1ccc(Nc2ncccc2C#N)cc1
    0.06	-0.36
Cc1cc(C(=O)NC2CC(C)(C)Cc3c2cnn3-c2cccc(F)c2)nn1C (stereo not given)
    1.17	-1.06
Cc1noc(C)c1COC(=O)[C@@H](NC(=O)c1ccccc1)C(C)C
    0.47	-1
O=C1CN(C(=O)c2cccs2)c2ccccc2N1
    0.33	-1.01
CCCCn1c(-c2ccc(F)c(F)c2)nc2cc3[nH]c(=O)c(C(C)C)nc3cc21
    0.02	1.7
CC1CCCN(C(=O)COC(=O)c2ccc3[nH]c4c(c3c2)CCCC4)C1 (stereo not given)
    2.24	0.64
O=C(Nc1ccc(Oc2cccc(C(F)(F)F)c2)nc1)c1ccco1
    1.73	-1.24
COc1cc2c(cc1OC)CN(C(=O)CCc1c[nH]c3ccccc13)[C@H](C(=O)O)C2
    0.05	0.3
CC(=O)N1N=C(c2ccc(NS(C)(=O)=O)cc2)CC1c1ccc2nccnc2c1 (stereo not given)
    1.13	-1.59
O=C1c2ccccc2C(=O)N1CCCc1nc(-c2cccnc2)no1
    0.07	-0.84
O=c1[nH]c(Nc2ccccn2)cc2ccccc12
    0.66	1.04
COc1cccc(C(=O)C2CCCN(Cc3cn[nH]c3C3CCCCC3)C2)c1 (stereo not given)
    0.21	-1.76
CC1(C)N=C(N)N=C(N)N1c1ccccc1
    2.13	-2.91

Another view of part of the listing above.
canonical_smiles | KCNQ2 pot | KCNQ2 pot baseline
CCOc1ccc(C2CC(c3ccc(F)cc3)n3ncnc3N2)cc1 (stereo not given) | 0.64 | 0.68
COc1ccc(OC)c(NC(=O)c2cccc(NC(=O)c3ccccc3C(=O)O)c2)c1 | 0.69 | 0.36

Single records (already shown). Screens in order: KCNQ2 pot, KCNQ2 pot baseline
Shown for O=C1c2ccccc2C(=O)N1CCCc1nc(-c2cccnc2)no1 : 0.07, -0.84
Shown for CS(=O)(=O)N(Cc1ccccc1)c1ccccc1C(=O)N1CCN(c2ccccc2)CC1 : 0.39, -0.27

New compounds follow:
Values run as follows: KCNQ2 pot	KCNQ2 pot baseline
CCCCCNC(=O)c1ccc(NS(=O)(=O)c2ccc3[nH]c(=O)[nH]c3c2)cc1
    0.55	-2.45
COc1cccc(-n2ccn(CC(=O)NCCc3ccccc3)c(=O)c2=O)c1
    0.26	-2.04
COc1cc(/C=N/NC(=O)c2nnn(-c3nonc3N)c2C(C)C)ccc1OCc1ccc(F)cc1
    0.55	0.88
CNc1nc(N)nc(-c2cc(Cl)ccc2OC)n1
    0.45	0.88
Cc1cc(C)c(NC(=O)Nc2ccccc2)c(Cl)c1
    5.29*	0.35*
CCCCN(C)S(=O)(=O)c1c(C)[nH]c(=O)[nH]c1=O
    0.87	-0.67
CCOC(=O)c1c(CN(C)C)n(C)c2ccc(OC(C)=O)cc12
    0.76	0.22
O=C(O)C1CCCN1C(=O)c1cncc(Br)c1 (stereo not given)
    1.13	-0.71
Cc1cc2ncc(-c3ncc(C(F)(F)F)cc3Cl)cn2n1
    0.38	0.85
CCOc1ccc(NC(=O)c2c[nH]n3c(=O)cc(C4CCN(C(=O)OC(C)(C)C)CC4)nc23)cc1
    8.55*	2.11*
CC(=O)c1ccc(N2CCc3ccccc3C2)c([N+](=O)[O-])c1
    1.86	-1.21
CCCCc1ccc(NC(=O)COCC)cc1
    1.3	-0.11
C(=N\N=C\c1cccs1)/c1cccs1
    0.67	-0.12
COc1ccc2oc(C(=O)OCC(=O)NC3CCCC3)c(C)c2c1
    0.21	-2.24
c1ccc(C[n+]2csc3ccccc32)cc1
    0.01	2.01
COCCCNC(=O)c1sc2ncnc(N3CCc4ccccc4C3)c2c1C
    0.01	0.07
COc1ccccc1OCC(=O)Nc1ccccc1C(=O)N1CCCC1
    0.04	0.96
O=C(O)C(S)C(S)C(=O)O (stereo not given)
    1.74	-1.47
Cc1ccsc1C(=O)NC(C)c1ccc2c(c1)OCO2 (stereo not given)
    0.6	-1.09
O=C(CN(Cc1ccco1)C(=O)CNS(=O)(=O)c1ccc(Cl)cc1)NCc1ccc(F)cc1
    0.01	-0.98

Values run as follows: KCNQ2 pot	KCNQ2 pot baseline
O=C(O)CCCC(=O)Nc1cccc2cccnc12
    0.71	2.64
C=CCn1c(SCC(=O)c2[nH]c(C)c(C(=O)OC)c2C)nc2scc(-c3ccc(OC)c(OC)c3)c2c1=O
    0.03	-0.01
CCOC(=O)N1CCN(S(=O)(=O)c2cc([N+](=O)[O-])c(C)cc2C)CC1
    0.47	-1.12
Cc1ccc(C)c(C2=NNC(=O)CC2)c1
    0.39	-0.17
CCCN(CC(=O)Nc1ccccc1C)C(=O)c1ccc(NC2CC2)c([N+](=O)[O-])c1
    0.21	0.89
CC(C)(C)NC(=O)Cn1nnc(-c2ccc(S(C)(=O)=O)cc2)n1
    0.57	0.15
N#CC1(NC(=O)COC(=O)CCN=C2NS(=O)(=O)c3ccccc32)CCCCC1
    0.4	-0.15
Cc1ccc(NCC(=O)N/N=C\C(Br)=C\c2ccccc2)cc1
    0.54	0.01
Cc1ccc(CNC(=O)C2(c3cccs3)CCOCC2)cc1
    0.01	0.05
Cc1cccc(OCC(=O)Nc2nc3ccc([N+](=O)[O-])cc3s2)c1
    0.02	-0.3
N#CCSc1nc2ccccc2o1
    0.16	-0.68
CCOc1ccc(C(c2c(NC(=O)c3ccccc3)sc(C)c2C)N2CCN(CCO)CC2)cc1 (stereo not given)
    0.96	0.07
C=CCC1(Cl)C(=O)C(Cl)=C(N2CCN(C)CC2)C1(OC)OC (stereo not given)
    0.13	-1.41
COc1ccc(CCC(C)Nc2ccc(F)c(F)c2)cc1 (stereo not given)
    0.47	-1.96
O=c1sc(N2CCN(c3ccc(F)cc3)CC2)nc2ccsc12
    0.53	1.13
CC(Oc1ccccc1)C(=O)N(CCC1=CCCCC1)c1c(N)n(Cc2ccccc2)c(=O)[nH]c1=O (stereo not given)
    0.65	-0.6
O=C(Nc1scc(-c2ccc(F)cc2)c1C(=O)O)c1ccco1
    1.07	-0.82
O=C1N(c2ccccc2)C(c2ccc(Cl)cc2)N2CCCN12 (stereo not given)
    0.22	-0.03
CCOC(=O)N1CCN(CC(=O)Nc2c(C(=O)OC)[nH]c3ccc(Cl)cc23)CC1
    0.59	0.38
CCCN1CCN(S(=O)(=O)c2ccc(-n3cnnn3)cc2)CC1
    0.12	-0.3

Values run as follows: KCNQ2 pot	KCNQ2 pot baseline
Cn1c(N)c(C(=O)COC(=O)C2CCN(S(=O)(=O)c3cccs3)CC2)c(=O)n(C)c1=O
    0.81	1.49
O=C(/C=C/c1ccccc1)NCCCNC(=O)/C=C/c1ccccc1
    0.07	-2.14
O=C(CCN1CCCC1)Nc1cccc(Br)c1
    1.13	2.18
CC(=O)Nc1nc(C)c(Oc2ccccc2)c(=O)[nH]1
    1.29	0.04
COc1ccc(S(=O)(=O)Nc2ccc3cn[nH]c3c2)cc1C
    0.97	0.54
CCOC(=O)c1oc2cc(OC(C)=O)ccc2c(=O)c1-c1ccc(OC)c(OC)c1
    0.29	-2.51
COc1ccc2[nH]c(-c3ccccc3)cc2c1
    0.91	-1.51
C=CCn1c(SCc2ccc(Br)cc2F)nc2cc(C(=O)O)ccc2c1=O
    5.35*	-2.07*

Look-ups from above.
KCNQ2 pot with C=CCn1c(SCc2ccc(Br)cc2F)nc2cc(C(=O)O)ccc2c1=O = 5.35*
KCNQ2 pot with CCOC(=O)c1oc2cc(OC(C)=O)ccc2c(=O)c1-c1ccc(OC)c(OC)c1 = 0.29
KCNQ2 pot baseline with O=C(CCN1CCCC1)Nc1cccc(Br)c1 = 2.18
KCNQ2 pot baseline with COc1ccc2[nH]c(-c3ccccc3)cc2c1 = -1.51
KCNQ2 pot baseline with O=C(/C=C/c1ccccc1)NCCCNC(=O)/C=C/c1ccccc1 = -2.14
